# Methyltransferases = Primary Screen for Target Class Profiling of Small Molecule Inhibitors of Methyltransferases | purified enzyme, MTase-Glo SAH luminescence; stronger effect = lower value | calls only at 40 µM | AID 1745853, 2022 | 3.9% of 25,000 active; active = -50% or lower on at least one of six enzymes; inconclusive = the cases between; inactive = as a rule above -30% on all six;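 further: enzymes were COMT GAMT GNMT HNMT NNMT and PNMT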
#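 Each enzyme was reacted with SAM and its substrate, with compounds tested once at 40 uM; SAH formed was read by MTase-Glo luminescence.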
# Calls only; i = inactive; ? = inconclusive; + = active, no number. On the % scale 0 is the no-effect control and ±100 the full control effect. Only part of the results is shown; the hit share may differ from the screen's.
SMILES,Methyltransferases
CCc1ccccc1NC(=O)Cn1c(=O)oc2cc(S(=O)(=O)N3CCCCC3C)ccc21 (stereo unspecified),i
COc1cccc(CNC(=O)c2cc3n(n2)CC(C)(C(=O)NCc2ccc(C)cc2)N(C)C3=O)c1 (stereo unspecified),i
CCCn1c(=O)c2cc(Cl)ccc2n2c(SCC(=O)Nc3ccccc3CC)nnc12,i
Nc1nc(N)c2nc(CNc3ccc(C(=O)NC(CCC(=O)O)C(=O)O)cc3)cnc2n1 (stereo unspecified),i
COc1cccc(CN2C(=O)c3cc4oc(C)cc4n3CC2(C)C(=O)NC2CCCCCC2)c1 (stereo unspecified),i
CCOc1ccccc1C(=O)NC1CCN(c2cc(C)cc(C)c2)C1=O (stereo unspecified),i
CC(C)Oc1ccc(CNC(=O)c2ncn3c2C(=O)N(C2CC2)C(C)(C(=O)NCc2ccccc2)C3)cc1 (stereo unspecified),i
Cc1cc2c(cc3n2CC(C)(C(=O)NC2CCCCCC2)N(Cc2ccccc2C)C3=O)o1 (stereo unspecified),i
COc1cc2c(CCNC(C)=O)c[nH]c2cc1O,+
Cc1ccc(NC(=O)Cn2nc3n(CCc4ccccc4)c(=O)c4ccccc4n3c2=O)c(Cl)c1,i
COc1cccc(NC(=O)Cn2c(=O)oc3cc(S(=O)(=O)N4CCC(C)CC4)ccc32)c1,i
CCn1nc(C)cc1C(=O)NCc1cccnc1N1CCOCC1,i
CSc1ccc(CNC(=O)c2cc3n(n2)CC(C)(C(=O)NC2CCCCCC2)N(C)C3=O)cc1 (stereo unspecified),i
C/C=C(\C)C(=O)OC1C2(O)CC3=C4CC(=O)OC(c5ccoc5)C4(C)CCC3C(C)(C2=O)C(C(OC(C)=O)C(=O)OC)C1(C)C (stereo unspecified),i
COc1ccc(OC)c(CCN2C(=O)c3cc4occc4n3CC2(C)C(=O)NC2CCCCCC2)c1 (stereo unspecified),i
Cc1cn2nc(C(=O)N3CCC(NC(=O)COc4ccccc4)CC3)cc2c(=O)[nH]1,i
CC1(C)CCCC2(C)C1CC=C1C(=O)OC(O)C12O (stereo unspecified),i
CC1CCC(NC(=O)CCCc2nnc3n4nc(-c5ccccc5)nc4c4ccccc4n23)CC1 (stereo unspecified),i
O=C(NCC(F)F)C1CCCN1C(=O)c1cccc(-c2ccccn2)c1 (stereo unspecified),i
COc1cccc(NC(=O)c2cc3n(n2)CC(C)(C(=O)NC2CCCCC2)N(C)C3=O)c1 (stereo unspecified),i

# Brought forward from above: two entries, followed by the next part.
SMILES,Methyltransferases
O=C(NCC(F)F)C1CCCN1C(=O)c1cccc(-c2ccccn2)c1 (stereo unspecified),i
COc1cccc(NC(=O)c2cc3n(n2)CC(C)(C(=O)NC2CCCCC2)N(C)C3=O)c1 (stereo unspecified),i
COc1ccc(NC(=O)Cn2nc3n(CCC(C)C)c(=O)c4ccccc4n3c2=O)cc1OC,i
CC(C)n1nnc2cc(S(=O)(=O)N(C)CC(=O)N3CCN(c4ccccn4)CC3)ccc21,i
Cc1ccc(Cn2c(=O)c3ccccc3n3c(SCC(=O)Nc4cccc(C)c4)nnc23)cc1,i
CC1(C(=O)NC2CCCCC2)Cn2c(cc3sccc32)C(=O)N1Cc1cccnc1 (stereo unspecified),i
C=C1CC[C@@H]2[C@](C)(CO)[C@H](O)CC[C@@]2(C)[C@@H]1CC(=O)C1=CCOC1=O,i
CCn1ccnc1CC1COc2ccccc2O1 (stereo unspecified),i
CC1(C(=O)NC2CCCC2)Cn2c(cc3sccc32)C(=O)N1Cc1ccccc1Cl (stereo unspecified),i
CC(=O)[C@]1(O)Cc2c(O)c3c(c(O)c2[C@@H](O[C@H]2C[C@H](N)[C@H](O)[C@H](C)O2)C1)C(=O)c1ccccc1C3=O,i
C=Cc1ccc(Cn2nc3n(C(C)C)c(=O)c4ccc(C(=O)NC(C)CC)cc4n3c2=O)cc1 (stereo unspecified),i
COc1ccccc1N1CCN(C(=O)CCc2nnc3n(Cc4ccc(C)cc4)c(=O)c4ccccc4n23)CC1,i
Cc1cc(C)cc(N2C(=O)c3cc4occc4n3CC2(C)C(=O)NC2CCCCC2)c1 (stereo unspecified),i
COC1CCOC2(CCN(C(=O)CCc3nc4ccccc4s3)CC2)C1 (stereo unspecified),i
C=C1[C@H](OC(C)=O)[C@H]2[C@@H](OC(C)=O)[C@](C)(OC(C)=O)C[C@]2(OC(C)=O)C(=O)[C@H](C)/C=C/C(C)(C)C(=O)[C@H](OC(=O)C(C)C)[C@H]1OC(C)=O,i
Cc1cc(C(=O)Nc2nc3cccc(Cl)c3n2C2CCCCN(C(=O)/C=C/CN(C)C)C2)ccn1 (stereo unspecified),?
CCOC(=O)Cc1ccc(NC(=O)N2CCn3cccc3C2C(C)C)cc1 (stereo unspecified),i
Clc1cc(NCc2ccccc2Cl)n2nccc2n1,i
COc1cccc2c1[C@@H]1CN(CCCCn3c(=O)[nH]c4c(sc5ncc(-c6ccccc6)nc54)c3=O)C[C@@H]1CO2,i
CCCn1c(=O)c2ccc(Cl)cc2n2c(=O)n(CC(=O)Nc3ccc(C)cc3C)nc12,i
COC[C@@H]1CN(Cc2cn[nH]c2-c2ccccc2)C[C@H]1c1nc(C)no1,i
CC1CCCC(O)CCC/C=C/c2cc(OS(=O)(=O)O)cc(O)c2C(=O)O1 (stereo unspecified),?
CC(C)NC(=O)c1ccnc(-c2cc(NC3CCCC3)nc3[nH]ccc23)c1,i
CCCn1c(=O)c2ccc(C(=O)NC3CCCCC3)cc2n2c(=O)n(CC(=O)NC(C)(C)C)nc12,i
O=C(NCCCc1ccccc1F)[C@@]12CNC[C@@H]1CN(Cc1ccccc1)C2,i
COc1cc(/C=C/C(=O)O[C@H]2C[C@@H]3C(C(=O)O)=CO[C@@H](O[C@@H]4O[C@H](CO)[C@@H](O)[C@H](O)[C@H]4O)[C@@H]3[C@H]2C)ccc1O,?
O=C(Cn1c(=O)oc2cc(S(=O)(=O)N3CCCC3)ccc21)Nc1ccccn1,i
CCCc1cc2c(-c3ccccc3)cc(=O)oc2cc1OCc1ccc(C(=O)O)o1,+
O=C(CCO[C@@H]1O[C@H](CO)[C@@H](O)[C@H](O)[C@H]1O)c1ccc(O)cc1,i
CN1C(=O)CCC2(CNC(=O)CCc3c[nH]c4ccccc34)CCC=C12 (stereo unspecified),i
CC(=O)O[C@H]1CC(C)(C)CC2[C@]13CO[C@@]21CCC2[C@@]4(C)CC[C@H](O[C@@H]5OC[C@H](O[C@@H]6O[C@H](CO)[C@@H](O)[C@H](O)[C@H]6O[C@@H]6OC[C@@H](O)[C@H](O)[C@H]6O)[C@H](O)[C@H]5O[C@@H]5O[C@H](CO)[C@@H](O)[C@H](O)[C@H]5O)[C@@](C)(CO)C4CC[C@@]2(C)[C@]1(C)C[C@H]3O (stereo partly specified),i
O=c1[nH]ccc2nc(-c3ccc(CN4CCC(c5nc(-c6ccccn6)n[nH]5)CC4)cc3)c(-c3ccccc3)cc12,+
Cc1ccc(CNC(=O)N2CCc3nnc(C4CC4)n3CC2)cc1,i
CC(=O)O[C@@H]1CC[C@@]2(C)C(CC[C@]3(C)C2[C@H](O)C=C2[C@H]4[C@@H](C)[C@H](C)CC[C@]4(C)CC[C@]23C)[C@@]1(C)C(=O)O (stereo partly specified),i
O=C(CCc1nnc2n(CCc3ccccc3)c(=O)c3ccccc3n12)NCCCN1CCCCC1,+
CC1CCN(S(=O)(=O)c2ccc3c(ccn3CC(=O)N3CCc4ccccc4C3)c2)CC1,i
CC1(C(=O)NC2CCCCCCC2)Cn2c(ccc2-c2ccco2)C(=O)N1CC1CCCO1 (stereo unspecified),i
O[C@@H]1C[C@@H](c2nc(-c3ccc4c(c3)OCO4)no2)N(Cc2ccc(-c3ccccn3)cc2)C1,i
CS(=O)(=O)c1ccc(C(=O)Nc2ccc(Cl)c(-c3ccccn3)c2)c(Cl)c1,i
OCCOCCn1cnc(-c2ccccc2)c1COCc1ccccc1,i
N[C@@H](Cn1ccc(=O)c(O)c1)C(=O)O,i
CCc1ccccc1N1C(=O)c2cc3ccccc3n2CC1(C)C(=O)NCCC(C)C (stereo unspecified),i

# An excerpt from above in order of number of heavy atoms, low to high.
SMILES,Methyltransferases
OCCOCCn1cnc(-c2ccccc2)c1COCc1ccccc1,i
O=C(Cn1c(=O)oc2cc(S(=O)(=O)N3CCCC3)ccc21)Nc1ccccn1,i
CC(=O)O[C@H]1CC(C)(C)CC2[C@]13CO[C@@]21CCC2[C@@]4(C)CC[C@H](O[C@@H]5OC[C@H](O[C@@H]6O[C@H](CO)[C@@H](O)[C@H](O)[C@H]6O[C@@H]6OC[C@@H](O)[C@H](O)[C@H]6O)[C@H](O)[C@H]5O[C@@H]5O[C@H](CO)[C@@H](O)[C@H](O)[C@H]5O)[C@@](C)(CO)C4CC[C@@]2(C)[C@]1(C)C[C@H]3O (stereo partly specified),i

# Further records follow:
SMILES,Methyltransferases
CC1(C(=O)NCC2CCCO2)Cn2c(cc3ccccc32)C(=O)N1Cc1ccccc1Br (stereo unspecified),i
CCCn1c(=O)c2ccc(C(=O)NC(C)CC)cc2n2c(=O)n(CC(=O)Nc3ccccc3CC)nc12 (stereo unspecified),i
COc1cccc(Nc2cc(C(=O)NCc3cccnc3)c3c(c2)ncn3C)c1,?
Cc1ccc(Cn2c(=O)c3ccc(C(=O)NC4CCCC4)cc3n3c(=O)n(Cc4ccccc4)nc23)cc1,i
CCCc1nc2c3ccccc3n(CC(=O)N3CCN(c4ccccc4F)CC3)c(=O)n2n1,i
CC1(C)S[C@H]2[C@H](NC(=O)[C@@H](N)c3ccc(O)cc3)C(=O)N2[C@H]1C(=O)O,?
NC(=O)c1cccc(N)c1,i
C[C@@H]1CC[C@]2(C(=O)O)CC[C@]3(C)C(=CCC4[C@@]5(C)CC[C@H](O)[C@](C)(C(=O)O)C5CC[C@]43C)C2[C@]1(C)O (stereo partly specified),i
CC1(C(=O)NC2CCCCCC2)Cn2c(nc3ccccc32)C(=O)N1Cc1ccc(Cl)cc1 (stereo unspecified),i
CCOCC(O)Cn1cnc(-c2ccccc2)c1-c1cccc(OC)c1F (stereo unspecified),i
CC(=O)N1CCC2(CC1)CC(c1cccc(C(F)(F)F)c1)=NO2,i
CCC(C)N1Cc2cc(NC(=O)Cc3cccc(OC)c3)ccc2OCC1=O (stereo unspecified),i
COc1cc(OC)cc(C(=O)Nc2ccc3nc(Nc4cccc(C(F)(F)F)c4)cc(C)c3c2)c1,?
CC[C@@](C)(Nc1ccnc(-c2c[nH]c3ncccc23)n1)C(=O)NCC(F)(F)F,i
Cc1cc(C)cc(NC(=O)Cn2c(=O)oc3cc(S(=O)(=O)NCc4ccccc4)ccc32)c1,i
COc1ccc(CN2CCn3c(nnc3C3CCCNC3)C2)cc1 (stereo unspecified),i
CN(Cc1cccs1)Cc1cccn1C,i
CCCC1c2cccn2CCN1C(=O)Nc1cc(Cl)ccc1OC (stereo unspecified),i
Cc1nn2c(c1-c1ccnn1C(C)C)N(Cc1ccc3c(c1)CCO3)CCC2,i
C[C@@]12C(=O)N(c3ccc(C(=O)Nc4cccc5cccnc45)cc3)C(=O)[C@@H]1[C@@H]1C=C[C@H]2C1,i

# As a working copy, some entries already given.
SMILES,Methyltransferases
CCCC1c2cccn2CCN1C(=O)Nc1cc(Cl)ccc1OC (stereo unspecified),i
Cc1nn2c(c1-c1ccnn1C(C)C)N(Cc1ccc3c(c1)CCO3)CCC2,i
C[C@@]12C(=O)N(c3ccc(C(=O)Nc4cccc5cccnc45)cc3)C(=O)[C@@H]1[C@@H]1C=C[C@H]2C1,i

# (further entries)
SMILES,Methyltransferases
NC(=O)c1ccc(OCC2NC(=O)C3CCCN3C2=O)cc1 (stereo unspecified),i
C=Cc1ccc(Cn2nc3n(CCc4ccccc4)c(=O)c4ccccc4n3c2=O)cc1,i
CCc1nnc([C@@H]2CC(F)(F)CN2C(=O)c2occc2C)o1,i
Cc1noc([C@@H]2CN(C3CCCCCC3)C[C@H]2CO)n1,i
COc1ccc(CN2C(=O)c3cc(C(C)(C)C)nn3CC2(C)C(=O)NC2CCCCC2)cc1 (stereo unspecified),i
CCn1nc2n(c1=O)CCN(Cc1cc(C)ccc1C)C2=O,i
CC(C)c1cc2c(c(O)c1O)[C@@]13CCCC(C)(C)[C@@H]1[C@H](OC3=O)C2=O,i
CC(CN1C(=O)c2ccc(-c3ccco3)n2CC1(C)C(=O)NC1CCCC1)c1ccccc1 (stereo unspecified),i
CCc1nc(-c2c3n(c(=O)n(CC(=O)OC)c2=O)CCCC3)no1,i
COc1ccccc1N1CCN(S(=O)(=O)c2cccc3c2C(=O)c2ccccc2C3=O)CC1,i
CCCCN1C(=O)c2cc(C(=O)Nc3cc(Cl)ccc3C)nn2CC1(C)C(=O)NC1CCCC1 (stereo unspecified),i
O=C(CCn1ccc2cc(S(=O)(=O)N3CCCCC3)ccc21)NCc1ccco1,i
Clc1nccc2c1ccc1ccccc12,?
COc1ccccc1CCC(=O)N1CCCC(c2[nH]ccc2C(N)=O)C1 (stereo unspecified),i
O=c1c2ccccc2n2c(-c3cccc(Br)c3)nnc2n1Cc1ccc(F)cc1,i
COc1cccc(-c2ccc(C(=O)NCCNC(=O)Cc3ccc(F)cc3)cc2)c1,i
C[C@@H](O)[C@H]1C(=O)N2C(C(=O)O)=C(S[C@@H]3CN[C@H](CNS(N)(=O)=O)C3)[C@H](C)[C@H]12,?
COc1cccc(CN2C(=O)c3ccc(-c4ccccc4)n3CC2(C)C(=O)NC2CCCCC2)c1 (stereo unspecified),i
COc1ccc(N2C(=O)c3nc4ccccc4n3CC2(C)C(=O)NC2CCCCCC2)cc1 (stereo unspecified),i
CCCN1C(=O)c2cc(C(=O)NCc3ccc(SC)cc3)nn2CC1(C)C(=O)NC1CCCC1 (stereo unspecified),i
CCCn1c(=O)c2cc(Cl)ccc2n2c(=O)n(CC(=O)N3CCN(c4ccc(F)cc4)CC3)nc12,i
CC(C)c1nc(CN(C)C(=O)N[C@H](C(=O)N[C@@H](Cc2ccccc2)C[C@H](O)[C@H](Cc2ccccc2)NC(=O)OCc2cncs2)C(C)C)cs1,i

# Screens: PubChem BioAssay, National Center for Advancing Translational Sciences (NCATS)
